2A StopGo: FMDV 2A StopGo reporter, luciferase signal; Potency, µM (highest dose often 57.9 µM), for the others: at the highest dose signal change, negative = less light; human cells with a luciferase reporter of 2A StopGo recoding; control for the full effect not named in the record; hit rate 1.2% among 410,000; AID 1159524; active = well fitted falling curve with a large enough effect; inconclusive = small, poorly fitted or top-dose-only effect; inactive = no such curve, though single readings can be large or run the other way; tested in HEK293T cells; also: % is scaled to controls: 0 for no effect and ±100 for the full control effect; nearly all actives have a fitted effect of over 45% in size; luciferase light after 4 h
Lassa entry inh: Lassa virus entry inhibition; Potency, µM (titrated, usually from 37.9 µM), for the others: top-dose activity change, negative = inhibition, hits mostly inhibitors; hit rate 1.2% among 300,000; Lassa virus pseudotype entry inhibition, cell reporter; control for the full effect not named in the record; active means well fitted inhibition curve with a large enough effect; inconclusive means small, poorly fitted or top-dose-only effect, or effect the other way; inactive means flat fitted curve, though single readings scatter; tested in HEK293 cells; also: % is scaled to controls: 0 for no effect and ±100 for the full control effect; nearly all actives have a fitted effect of over 50% in size; luciferase read-out
Cruzain noTriton: cruzain (T. cruzi) inhibition without detergent | P25779 | purified cruzain, Z-FR-AMC fluorescence, no detergent | Potency, µM, for the others: max response, negative = inhibition, usual class: inhibitors | hit rate 2.3% among 200,000; active = well fitted curve in the direction sought with a large enough effect; inconclusive = small, poorly fitted or top-dose-only effect, or another doubt; inactive = no such curve, though single readings can be large; an effect the other way counts as inactive or inconclusive;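 also: plate controls were enzyme without inhibitor for no effect and buffer without enzyme for full effect; nearly all actives have a fitted effect of over 40% in size; top concentration of the series not given in the record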
Target sequence (P25779 123-467 limits assumed): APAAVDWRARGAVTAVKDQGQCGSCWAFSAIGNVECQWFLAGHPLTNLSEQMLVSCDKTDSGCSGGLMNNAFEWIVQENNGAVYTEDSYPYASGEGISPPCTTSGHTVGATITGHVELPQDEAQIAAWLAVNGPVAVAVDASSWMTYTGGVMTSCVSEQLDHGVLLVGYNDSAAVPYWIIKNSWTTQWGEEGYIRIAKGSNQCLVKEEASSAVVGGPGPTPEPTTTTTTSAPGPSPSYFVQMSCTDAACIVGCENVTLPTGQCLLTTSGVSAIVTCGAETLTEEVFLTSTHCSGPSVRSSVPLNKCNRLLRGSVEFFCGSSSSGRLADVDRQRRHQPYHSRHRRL
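Detergent-free condition (0.00005% Triton X-100) in acetate buffer pH 5.5 with DTT. 1.5 nM enzyme and compound were pre-mixed 15 min, then 2 uM Z-FR-AMC substrate added; reaction progress from fluorescence change between first and third reads (60 s).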
SARS PLP yeast: blocks SARS-CoV papain-like protease in a yeast assay | S. cerevisiae expressing SARS-CoV PLpro, growth rescue; control for the full effect not named in the record | hit rate 0.19% among 330,000 | Potency, µM (doses to about 32.9 µM), for inactives: top-dose activity, positive = growth rescue | AID 485353; also: 0% is about no effect; nearly all actives have a fitted effect of over 55% in size; growth read by luminescence after 48 h
RE007 growth inh: less growth of the S. pombe RE007 Vpr strain. hit rate 0.21% among 360,000. Potency, µM (doses to about 92.2 µM), for the others: at the highest dose activity change, negative = less growth. AID 651644. S. pombe RE007 Vpr strain, BacTiter-Glo ATP luminescence, 24 h; control for the full effect not named in the record; active = well fitted falling curve with a large enough effect; inconclusive = small, poorly fitted or top-dose-only effect; inactive = no such curve, though single readings can be large or run the other way;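 also: % is scaled to controls: 0 for no effect and ±100 for the full control effect; nearly all actives have a fitted effect of over 50% in size; the assay follows cell death caused by Vpr and the record does not say whether a fall means rescue or toxicity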
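Fission yeast RE007 carrying one integrated HIV-1 vpr copy, seeded at OD 0.01 in PMG+AL medium with 23 nL pinned compound. Grown 24 h at 30 degrees; viability read by BacTiter-Glo luminescence after 5 min.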
Marburg entry inh: blocks Marburg virus binding to or entry into cells | hit rate 1.8% among 300,000 | Marburg virus pseudotyped entry inhibition, cell reporter; control for the full effect not named in the record; about a third of the inactives were read at about 46 µM | Potency, µM (titrated, usually from 37.8 µM), for the others: at the top dose activity change, negative = inhibition, hits mostly inhibitors; active = well fitted inhibition curve with a large enough effect; inconclusive = small, poorly fitted or top-dose-only effect, or effect the other way; inactive = flat fitted curve, though single readings scatter; tested in HEK293 cells; about a fifth of its hits are not listed in these tables; also: % is scaled to controls: 0 for no effect and ±100 for the full control effect; luciferase read-out
NS1 inh: inhibitors of influenza NS1 protein function; hit rate 0.4% among 270,000; S. cerevisiae slowed by influenza A NS1, growth recovery by OD600; Potency, µM (top dose mostly 46.1 µM), inactives show at the top dose activity, positive = more growth; AID 2326; also: actives are rising curves; nearly all actives have a fitted effect of over 50% in size
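Growth recovery, yeast-based: influenza A NS1 expressed in S. cerevisiae causes slow growth, and suppressors are detected by OD600. The parent strain without NS1 is used as positive control.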
Cruzain Triton: blocks cruzain activity in presence of Triton detergent; P25779; purified cruzain, Z-FR-AMC fluorescence, 0.01% Triton; Potency, µM, for the others: max response, negative = inhibition, usual class: inhibitors; hit rate 0.43% among 200,000; AID 1478; active = well fitted curve in the direction sought with a large enough effect; inconclusive = small, poorly fitted or top-dose-only effect, or another doubt; inactive = no such curve, though single readings can be large; an effect the other way counts as inactive or inconclusive;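 also: plate controls were neutral wells for no effect and buffer without enzyme for full effect; nearly all actives have a fitted effect of over 40% in size; top concentration of the series not given in the record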
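Purified cruzain (1.5 nM final) was preincubated with compounds for 15 min at room temperature in 100 mM sodium acetate pH 5.5, 5 mM DTT, 0.01% Triton X-100. Reaction started with 2 uM Z-FR-AMC; AMC fluorescence change over 60 s gave activity.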
* = called active by the depositor; ? = inconclusive; · = no result given; & = joins results of further samples; [ ] = dose if it differs, or a comment. Unless noted, calls follow the shape of the dose curve; as a rule, active means well fitted rising curve with a large enough effect; inconclusive means small, poorly fitted or top-dose-only effect; inactive means no such curve, though single readings can be large or run the other way. Potency is read from the fitted curve at half-maximal effect.

Compound | 2A StopGo | Lassa entry inh | Cruzain noTriton | SARS PLP yeast | RE007 growth inh | Marburg entry inh | NS1 inh | Cruzain Triton
Cc1ccc(OCC(=O)c2cc(C)n(Cc3cccs3)c2C)c([N+](=O)[O-])n1 | 18µM* | ? | · | -1% | 3% | ? | 4% | ·
CCCN(C(=O)c1cc2c(=O)oc3ccccc3c2s1)c1ccccc1C | 40µM* | 2%[46.1 µM] | 6% | · | · | 9%[46.1 µM] | · | -1.3%
COc1ccc(C(C(=O)NC2CCCC2)N(C(=O)Cc2cccs2)C2CC2)cc1OC (stereo not drawn) | -10% | 0% | · | -1% | -14% | 8%[46.1 µM] | 1% | ·
CCCc1nc2ccc(NC(=O)c3ccco3)cc2c(=O)n1Cc1ccccc1Cl | -21% | -26% | -3% | 14% | 9% | -31%[46.1 µM] | 15% | -5.9%
CCOC(=O)CNC(=O)c1cnc(Nc2ccccc2OC)c2ccccc12 | -6% | -4%[46.1 µM] | · | -1% | 4% | 0%[46.1 µM] | -2% | ·
COc1cccc(N(C(=O)c2snc(C(N)=O)c2N)C(C(=O)NCC2CCCO2)c2c[nH]c3ccccc23)c1 (stereo not drawn) | -6% | 5.6µM* | · | 1% | -1% | -12% | -1% | ·
CCCCNC(=O)c1ccccc1Cl | 0% | 27% | -1% | -5% | 6% | 15% | 7% | 5.2%
CC(=O)c1sc2nc(C)cc(C)c2c1N | 2% | -3% | 2% | -1% | -10% | 23% | -5% | -5.1%

The last four entries of the section before open the next one:
Compound | 2A StopGo | Lassa entry inh | Cruzain noTriton | SARS PLP yeast | RE007 growth inh | Marburg entry inh | NS1 inh | Cruzain Triton
CCOC(=O)CNC(=O)c1cnc(Nc2ccccc2OC)c2ccccc12 | -6% | -4%[46.1 µM] | · | -1% | 4% | 0%[46.1 µM] | -2% | ·
COc1cccc(N(C(=O)c2snc(C(N)=O)c2N)C(C(=O)NCC2CCCO2)c2c[nH]c3ccccc23)c1 (stereo not drawn) | -6% | 5.6µM* | · | 1% | -1% | -12% | -1% | ·
CCCCNC(=O)c1ccccc1Cl | 0% | 27% | -1% | -5% | 6% | 15% | 7% | 5.2%
CC(=O)c1sc2nc(C)cc(C)c2c1N | 2% | -3% | 2% | -1% | -10% | 23% | -5% | -5.1%
COC(=O)c1cccc(NC(=O)CCNC(=O)c2ccc([N+](=O)[O-])cc2)c1 | -11% | 13% | -14% | 0% | 33% | 6% | 8% | -3.0%
Oc1ccc(N2CCN(C(c3cccnc3)c3nnnn3Cc3ccccc3)CC2)cc1 (stereo not drawn) | · | -23% | 3% | 0% | -5% | 1%&15% | 6% | -0.5%
COc1ccc(C(=O)CSc2nc3ccccc3n2CC(=O)c2ccccc2)cc1 | · | -1% | ? | 1% | -3% | -11% | 9% | -1.2%
CCOC(=O)C1=C(C)NC(=O)NC1c1ccc(OC)c(CN2CCOCC2)c1 (stereo not drawn) | -16% | 1% | -9% | 0% | -13% | -29% | 1% | -1.2%
CCn1c(=O)c([N+](=O)[O-])c(NCc2ccco2)c2ccccc21 | -23% | · | · | 0% | -15% | · | 0% | ·
CC(C(=O)Nc1ccc(OCc2ccccc2)cc1)N1CCCC1 (stereo not drawn) | 15% | 24%[46.1 µM] | · | -1% | -8% | ? | · | ·
COc1ccc(-c2cc(C(F)(F)F)n3nc(C(=O)N4CCN(C(=O)c5ccco5)CC4)cc3n2)cc1 | -14% | · | · | 8% | 14% | · | 17% | ·
Cc1ccccc1N1CCN(c2ccc(NC(=O)C3CCCCC3C(=O)O)cc2)CC1 (stereo not drawn) | -16% | ? | 13% | -4% | -16% | ? | ? | -0.8%
COc1ccc(C2/C(=C(/O)c3ccccc3)C(=O)C(=O)N2C)c(OC)c1 (stereo not drawn) | -12% | · | · | 0% | -6% | · | -3% | ·
CCn1c(=O)c([N+](=O)[O-])c(NC2CCS(=O)(=O)C2)c2ccccc21 (stereo not drawn) | -12% | -11%[46.1 µM] | · | 0% | 2% | -14%[46.1 µM] | 3% | ·
C=CCSC(=S)NC1CCS(=O)(=O)C1 (stereo not drawn) | 13µM* | -32% | 4% | 1% | · | ? | 2% | -3.1%
NC(=O)CSc1nnc(-c2cc(-c3ccc(Cl)cc3)nc3ccccc23)o1 | -3% | 11% | · | 0% | 18% | 3%[46.1 µM] | -3% | ·
Cc1cc(Nc2ccc(C)c(C)c2)n2nc(C)nc2n1 | -23% | · | -2% | -2% | 16% | · | ? | -2.3%
CCCc1nnc(NC(=O)CN2CCN(C)CC2)s1 | -3% | 2% | -6% | · | 15% | 8%[46.1 µM] | 10% | 5.7%
Cc1cc(C)cc(C(=O)NN2CCOCC2)c1 | -10% | 1% | 4% | -15% | 9% | ? | 14% | -2.2%
CCCCn1c(NCc2ccncc2)nc2ccccc21 | -5% | 19%[46.1 µM] | · | 0% | -11% | -23%[46.1 µM] | · | ·
O=C1/C(=C/c2cc3c(cc2Cl)OCO3)N2CCC1CC2 | · | -9% | -5% | 0% | · | -1% | -15% | 2.8%
CC(c1ccco1)N(C(=O)Nc1ccc(Cl)cc1)c1ccccn1 (stereo not drawn) | 37%[activator] | 16% | 2% | -2% | -23% | 4% | -46% | -0.4%
O=C(CCCC(=O)N1CCN(c2cccc(Cl)c2)CC1)c1ccccc1 | 6% | · | · | -9% | -11% | · | -58% | ·
CCOc1ccc(N2C(=O)CC(N3CCN(C(=O)c4ccco4)CC3)C2=O)cc1 (stereo not drawn) | 9% | 7% | 1% | -21% | -4% | 18%[46.1 µM] | -3% | 8.1%
O=C(Cn1nnc(-c2ccccc2)n1)NCc1cccs1 | -15% | 10% | 6% | -1% | 11% | 30% | -16% | -1.5%
COc1ccc(NS(=O)(=O)c2cc(NC(=O)C3=NN(c4ccccc4)C(=O)CC3)ccc2C)cc1 | 29% | -19% | · | · | 2% | · | · | ·
C=C(C)C(=O)Nc1ccc2c(c1)OCCOCCOCCO2 | -6% | -5%[46.1 µM] | · | -1% | -8% | 11µM* | 1% | ·
O=C(CSc1nc2ccccc2c(=O)n1Cc1ccc(F)cc1)NCc1cccs1 | -12% | -25% | ? | -1% | 9% | ? | 14% | 0.6%
CC(C)OC(=O)CSc1nnc(-c2ccc(Cl)cc2Cl)o1 | 27% | 1% | -1% | -6% | -24% | 4% | -11% | -2.8%
Cc1ccc(S(=O)(=O)N[C@H](C(=O)N2CCC(C(=O)N[C@H](C(=O)O)c3ccccc3)CC2)C(C)C)cc1 | -18% | · | · | 2% | -3% | · | 12% | ·
COC(=O)C(CC(=O)c1ccc(Cl)cc1)c1ccccc1 (stereo not drawn) | 4% | ? | · | · | 10% | 18% | · | ·
O=C(N/N=C/c1ccccc1)c1ccc(NC(=O)c2ccc(F)cc2)cc1 | 18% | · | · | -4% | -11% | 21%[46.1 µM] | 5% | ·
O=C(COC(=O)c1c(Cl)cccc1Cl)NCc1cccs1 | 18% | -30% | · | 8% | 4% | 3% | · | ·
CCCCCn1c(SCCc2ccccc2)nc2c1c(=O)[nH]c(=O)n2C | -26% | -4% | ? | 5% | 1% | 14%[46.1 µM] | -3% | 0.9%
CCOc1cc(C2NC(=O)NC(c3ccccc3)=C2C(C)=O)ccc1OCC(N)=O (stereo not drawn) | 15% | -21% | 5% | -2% | 2% | 14% | 5% | -0.7%
COc1ccc(Br)cc1CNC(=O)c1cnc2sc(N3CCC(C)CC3)nn2c1=O | ? | ? | -2% | · | · | · | · | 4.7%
O=[N+]([O-])c1ccc(OCc2cn([C@@H](CO)c3ccccc3)nn2)c(Br)c1 | 0% | · | · | 0% | -16% | · | -5% | ·
CC(=O)c1sc(Nc2nc3ccc(F)cc3s2)nc1C | 1% | ? | ? | -15% | ? | ? | -164% | -6.7%
Cc1ccc2nc3c(cc(C(=O)NC4CCCC4)c(=N)n3C(C)C)c(=O)n2c1 | -23% | 7%[46.1 µM] | 17% | · | · | 2%[46.1 µM] | · | -14%
CN(C)C=NC(=O)c1cc(C(=O)c2ccc(C(C)(C)C)cc2)c[nH]1 | 8% | 3.2µM* | · | -2% | -4% | ? | · | ·
COC1c2ccccc2C(=O)N1Cc1ccc(F)cc1 (stereo not drawn) | -4% | -3% | · | 14% | -8% | 16% | 7% | ·
COc1ccc(S(=O)(=O)N2CCOCC2)cc1NC(=O)CO/N=C/c1ccccc1OC(F)F | -12% | -2% | ? | 0% | 1% | ? | 0% | -5.4%
CCOc1cc(/C=C2\C(=O)N(Cc3ccc(C)cc3)C(C)=C2C(=O)OC)ccc1O | 35µM* | ? | 12% | 2% | 5% | 2% | 14µM* | -7.4%
C#CCN1C(=O)S/C(=C\c2ccc(-c3ccc(C(=O)O)cc3C)o2)C1=O | 25% | ? | · | -3% | 8% | ? | 18% | ·
CCc1ccccc1NC(=O)[C@H](Cc1ccccc1)N1Cc2ccccc2C1=O | -13% | -20%[46.1 µM] | 5% | · | · | -14%[46.1 µM] | · | -3.7%
Cc1ccc(-c2noc(CCC(=O)NCc3ccco3)n2)cc1 | 23% | -19%[14.3 µM] | -7% | -1% | -7% | -3% | -7% | -6.5%
Clc1cc(Cl)cc(NC2=NCCS2)c1 | -9% | -10% | · | -5% | -3% | -3%[46.1 µM] | -30% | ·
CCc1ccc(C(=O)COC(=O)C(Cc2ccccc2)NC(=O)c2ccc(Cl)cc2)cc1 (stereo not drawn) | 2% | 1% | -7% | 3% | 9% | 10%[46.1 µM] | 10% | 1.2%
O=C(O)COc1ccc2c(c1)O/C(=C\c1cccs1)C2=O | 12% | 4% | · | -3% | -11% | 20%[46.1 µM] | -4% | ·

Screening data: PubChem BioAssay, National Center for Advancing Translational Sciences (NCATS)
